D2 potentiator = Beta-Arrestin HTS for Positive Allosteric Modulators of the Human D2 Dopamine Receptor: Potentiators; hit rate 0.23% among 360,000; D(2) dopamine receptor (Homo sapiens), P14416; DiscoveRx D2 beta-arrestin cells, luminescence, 90 min; 100% = 57 uM dopamine signal; potentiation, % (test concentration not listed); active = potentiation of 50% or more; inconclusive = 30% to 50%; inactive = 30% or less;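 note: compound concentration not given in the record; tested on top of an EC20 dose of dopamine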
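PathHunter D2 cells, attached overnight at 37 deg C, received compound in DMSO plus dopamine at EC20 (50 nM final) for 90 min at 37 deg C. Beta-arrestin recruitment was read as luminescence after 1 h with detection reagent at ambient temperature.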
gsp agonist = qHTS for Agonist of gsp, the Etiologic Mutation Responsible for Fibrous Dysplasia/McCune-Albright Syndrome: qHTS; gsp mutant cells, cAMP HTRF, 30 min; control for the full effect not named in the record; Potency, µM (titrated, usually from 76.9 µM), inactives show at the highest dose activation (cAMP increase), usual class: activators; hit rate 0.13% among 340,000; AID 624287, 2012; active = well fitted activation curve with a large enough effect; inconclusive = small, poorly fitted or top-dose-only effect, or another doubt; inactive = no such curve, though single readings can be large or run the other way; cell line not stated here;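 note: phosphodiesterase inhibitor Ro 20-1724 added with compounds to block cAMP breakdown; potency is the fitted concentration of half-maximal effect; nearly all actives have a fitted effect of over 60% in size; about a fifth of the inactives were tested at one dose only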
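Cells stably selected in G418 were plated at 2000/well, grown 16-24 hr, then given compounds in DMSO with the PDE inhibitor […] (300 uM solution added) for 30 min at 37C; cAMP was read by HTRF.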
gsp antagonist = qHTS for Antagonists of gsp, the Etiologic Mutation Responsible for Fibrous Dysplasia/McCune-Albright Syndrome: qHTS | gsp-mutant cells, cAMP HTRF, 30 min; control for the full effect not named in the record | hit rate 0.4% among 340,000 | AID 624288, 2012 | Potency, µM (top dose mostly 76.9 µM), without a hit: top-dose activity change, negative = inhibition, usual class: inhibitors; active = falling curve of any shape with a large fitted effect; inconclusive = falling curve, mostly with a smaller effect; inactive = flat or rising curve; cell line not stated here;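 note: intracellular cAMP measured with PDE inhibitor Ro 20-1724 present during compound exposure; potency is the fitted concentration of half-maximal effect; % is set by controls: 0 for no effect and ±100 for the full control effect; nearly all actives have a fitted effect of over 65% in size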
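HTRF cAMP read-out (cAMP-d2 plus anti-cAMP antibody-K in lysis buffer, 30 min RT). Before lysis, cells are exposed to compounds with […] for 30 min at 37C in DPBS containing Ca/Mg, BSA and Tween 20.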
D2 ag = Beta-Arrestin HTS for Positive Allosteric Modulators of the Human D2 Dopamine Receptor: Agonists; hit rate 0.084% among 360,000; DiscoveRx PathHunter D2 beta-arrestin, luminescence, 90 min; 100% = 57 uM dopamine signal; D(2) dopamine receptor (Homo sapiens), P14416; activation, % (test concentration not listed); in the data active = activation above about 40%; inconclusive = about 15% to 40%; inactive = below about 15%; note: compound concentration not given in the record; the text of the record calls up to 30% inactive
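Agonist mode: compounds alone added to overnight-plated D2 PathHunter cells for 90 min at 37 C, with 57 uM final dopamine (EC100) defining full response. Beta-arrestin recruitment detected by chemiluminescent reagent, read after 1 h at ambient temperature.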
CtBP-E1A blk = qHTS Assay for Inhibitors of the CtBP/E1A Interaction; activity change, % (concentration not given with the values); hit rate 0.49% among 340,000; AlphaScreen GST-E1A/His-CtBP binding, 1536-well; stronger effect = lower value; control for the full effect not named in the record; in the data active means activity change below about -65%; inconclusive means about -30% to -65%; inactive means above about -30%; note: % is set by controls: 0 for no effect and ±100 for the full control effect
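Steps: dispense buffer (Tris pH 8.0, NaCl 300 mM, TCEP 1 mM, BSA, Tween 20); add 5X protein mix (GST-E1A, His-CtBP, 125 nM each); pin 23 nL compound; 2 h at 37 °C, dark; add 5X beads (50 ug/mL); 1 h; read.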
Six1-Eya2 inh = qHTS Assay for Inhibitors of the Six1/Eya2 Interaction | activity change, % (concentration not given with the values) | Homeobox protein SIX1 (Homo sapiens) + Protein phosphatase EYA2 (Homo sapiens), … | AlphaScreen GST-Six1/His-Eya2 binding, biochemical; stronger effect = lower value; control for the full effect not named in the record | hit rate 0.56% among 360,000; in the data active = activity change below about -65%; inconclusive = about -30% to -65%; inactive = above about -30%; note: % is set by controls: 0 for no effect and ±100 for the full control effect
Target sequence (O00167 whole entry, looked up): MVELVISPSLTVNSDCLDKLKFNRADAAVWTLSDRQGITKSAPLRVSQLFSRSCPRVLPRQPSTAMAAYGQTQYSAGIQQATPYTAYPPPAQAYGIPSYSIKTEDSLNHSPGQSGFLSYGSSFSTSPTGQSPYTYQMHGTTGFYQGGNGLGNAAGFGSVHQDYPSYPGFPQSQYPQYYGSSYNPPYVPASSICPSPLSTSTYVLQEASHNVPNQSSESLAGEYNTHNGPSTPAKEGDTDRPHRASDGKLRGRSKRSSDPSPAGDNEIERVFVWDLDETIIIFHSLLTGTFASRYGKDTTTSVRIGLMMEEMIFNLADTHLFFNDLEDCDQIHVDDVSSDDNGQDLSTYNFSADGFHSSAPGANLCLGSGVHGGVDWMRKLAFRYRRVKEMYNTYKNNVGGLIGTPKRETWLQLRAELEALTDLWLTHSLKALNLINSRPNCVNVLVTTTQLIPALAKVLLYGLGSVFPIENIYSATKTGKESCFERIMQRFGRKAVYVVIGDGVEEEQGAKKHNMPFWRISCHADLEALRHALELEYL
Target sequence (Q15475 whole entry, looked up): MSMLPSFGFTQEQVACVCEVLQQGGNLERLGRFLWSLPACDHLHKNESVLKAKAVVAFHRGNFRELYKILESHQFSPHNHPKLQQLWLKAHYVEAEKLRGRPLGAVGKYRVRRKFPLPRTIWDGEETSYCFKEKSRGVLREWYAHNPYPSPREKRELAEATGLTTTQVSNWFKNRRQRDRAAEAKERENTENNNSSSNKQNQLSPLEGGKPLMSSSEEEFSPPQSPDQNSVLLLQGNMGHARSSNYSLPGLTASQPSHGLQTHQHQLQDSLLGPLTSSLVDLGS
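AlphaScreen luminescence read after one hour at 37 °C in darkness. Pin-transferred compounds met GST-Six1 and His-Eya2 protein (5X stock 250 nM/500 nM) plus glutathione donor and Ni-chelate acceptor beads (5X, 50 ug/mL).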
Numbers without * were called inactive; ? = inconclusive; . = not tested or not shown; [ ] = dose if it differs, or a comment.

Sample of the layout (seven entries):
D2 potentiator	gsp agonist	gsp antagonist	D2 ag	CtBP-E1A blk	Six1-Eya2 inh	canonical_smiles
-3	-27%	-3%	-3.4	2	18	O=C(CCl)NN=C(c1ccccc1)c1ccccc1
-19	0%	-4%	0.8	3	11	Cc1cccc2cc(COC(=O)COc3ccccc3)c(=O)[nH]c12
-3	0%	0%	1.5	6	4	O=C(NC1CCCCCCC1)c1cccs1
-4	-48%[inhibitor]	8%	8.8	-16	8	COc1ccc(S(=O)(=O)N2CCC3(CC2)CC(=O)c2ccccc2O3)cc1OC
-3	-1%[15.4 µM]	-8%	4.5	.	11	Cc1ccc(C(=O)Nc2ccccc2C(=O)NC(Cc2ccccc2)C(=O)O)cc1 (centres undefined)
-10	-10%[15.4 µM]	-10%	-3.7	-6	-3	O=C(NC(=S)Nc1ccc(S(=O)(=O)Nc2ncccn2)cc1)c1ccc(Br)cc1
-10	2%	7%	-1.4	3	5	Cc1nn(C)c(C)c1C1C(C#N)=C(N)Oc2n[nH]c(C)c21 (centres undefined)

The list itself, from the first entry:
D2 potentiator	gsp agonist	gsp antagonist	D2 ag	CtBP-E1A blk	Six1-Eya2 inh	canonical_smiles
-3	-27%	-3%	-3.4	2	18	O=C(CCl)NN=C(c1ccccc1)c1ccccc1
-19	0%	-4%	0.8	3	11	Cc1cccc2cc(COC(=O)COc3ccccc3)c(=O)[nH]c12
-3	0%	0%	1.5	6	4	O=C(NC1CCCCCCC1)c1cccs1
-4	-48%[inhibitor]	8%	8.8	-16	8	COc1ccc(S(=O)(=O)N2CCC3(CC2)CC(=O)c2ccccc2O3)cc1OC
-3	-1%[15.4 µM]	-8%	4.5	.	11	Cc1ccc(C(=O)Nc2ccccc2C(=O)NC(Cc2ccccc2)C(=O)O)cc1 (centres undefined)
-10	-10%[15.4 µM]	-10%	-3.7	-6	-3	O=C(NC(=S)Nc1ccc(S(=O)(=O)Nc2ncccn2)cc1)c1ccc(Br)cc1
-10	2%	7%	-1.4	3	5	Cc1nn(C)c(C)c1C1C(C#N)=C(N)Oc2n[nH]c(C)c21 (centres undefined)
-2	12%[15.4 µM]	-4%	-0.4	3	1	Cc1c(O)c2c(=O)n(-c3ccccc3)c(-c3ccccc3)cc2oc1=O
-8	?	4%	-1.4	?	-13	COc1ccc(CCn2c(=N)c(C(=O)NCC3CCCO3)cc3c(=O)n4cccc(C)c4nc32)cc1OC (centres undefined)
-2	6%	8%	4.7	5	-5	COc1cccc(/C=N/NC(=O)c2cccc3ccccc23)c1OC
1	5%[15.4 µM]	-9%	-1.8	-2	3	COc1ccc(CN(CC2CCCO2)S(=O)(=O)c2ccc(-n3cnnn3)c(OC)c2)cc1 (centres undefined)
-9	20%	-28%	-2.0	1	-5	O=C(NCc1nc2ccccc2[nH]1)C1=C[C@@H](c2ccccc2)C[C@@H](OCc2ccc(CO)cc2)O1
-5	5%	7%	3.0	-1	12	CN(C)S(=O)(=O)c1ccc(C(=O)NCc2ccccn2)cc1
-5	6%	6%	0.0	0	-1	O=C(Cn1cc2c(n1)CCCC2)NCc1ccccn1
-2	6%	-11%	-3.2	110	62	O=C1c2cccc3cccc(c23)N1Cc1cccc(F)c1
0	-76%[inhibitor]	-9%	4.8	3	0	CSCCC(=O)N1CCCC(CO)(CCCc2ccccc2)C1 (centres undefined)
22	35%	-3%	-2.2	3	3	CCCCOC(=O)C1[C@H]2C(=O)N(c3ccccc3CC)C[C@]23C=C[C@H]1O3 (some centres undefined)
18	?	-1%	2.8	12	5	CC(C)CCNS(=O)(=O)c1ccc(-c2ccc(S(=O)(=O)NCCC(C)C)cc2)cc1
-3	9%[15.4 µM]	3%	3.9	4	2	O=C(COc1cc(Cl)ccc1Cl)Nc1ccc2[nH]c(=O)[nH]c2c1
-13	-2%	0%	-3.0	.	0	O=C1NC(=Nc2ccccc2)CS1
-19	0%	0%	5.1	.	-20	CCN1CCN(c2c(Cl)cccc2NC(=O)c2ccc([N+](=O)[O-])cc2)CC1
-6	-16%	?	0.1	-13	2	CCOC(=O)C1CCN(CC(=O)Nc2cc(S(=O)(=O)N3CCCCC3)ccc2Cl)CC1
12	-13%	-12%	1.1	1	4	COc1ccc(C2NC(=O)NC(O)(C(F)(F)F)C2C(=O)c2ccc(F)cc2)cc1 (centres undefined)
-21	-3%	-5%	-2.0	.	-1	CN(CCNC(=O)CN1C(=O)CSc2ccc(S(=O)(=O)N3CCCC3)cc21)Cc1ccccc1
-14	30%	-4%	8.0	.	0	Cn1c(CNc2cccc(C(F)(F)F)c2)n[nH]c1=S
.	.	-3%	-1.4	-12	0	Cc1noc(C)c1S(=O)(=O)N(C)C[C@H]1Oc2c(cccc2N(C)C)C(=O)N([C@H](C)CO)C[C@@H]1C
-3	-13%	-1%	-2.2	3	7	CCOCCCn1c(SCC(=O)NC(C)C)nc2ccccc2c1=O
-4	2%	1%	-0.4	1	0	c1coc(-c2ccnc3ncnn23)c1
-40	-33%[inhibitor]	3%	-1.3	-7	-1	O=C(NCCCN1CCN(c2ccc(F)cc2)CC1)c1cccc(N2CCCC2=O)c1
-9	10%	12%	-2.8	-2	-4	O=c1/c(=C/c2ccc(O)cc2)sc2n1CCCN=2
-78	-13%	-6%	1.8	.	11	CC(CCc1ccccc1)NCc1cccc2ccccc12 (centres undefined)
-5	.	.	-2.7	4	4	O=C(Nc1ccc(F)c(Cl)c1)[C@@H]1O[C@H](CO)[C@H](O)[C@H](O)[C@H]1O
12	20%[15.4 µM]	8%	7.5	-16	-29	CN(C)c1ccc(/C=N/NC(=O)c2cc(-c3ccc4c(c3)OCO4)n[nH]2)cc1
-11	.	-8%	7.5	6	3	COc1cc(C2OCC3C(c4cc(OC)c(OC)c(OC)c4)OCC23)cc(OC)c1OC (centres undefined)
-31	19%	-6%	-1.3	-2	-9	COc1ccc(C2C(C(=O)Nc3ccccc3OC)=C(C)Nc3nnnn32)c(OC)c1 (centres undefined)
-6	-30%	10%	1.0	-7	5	O=C1NCC(COCC2CC=CCC2)O1 (centres undefined)
0	13%	-24%	-0.6	4	4	O=C(O)c1ccc(CSc2nnc(COc3ccc(Cl)cc3Cl)o2)cc1
-20	0%	-2%	-3.0	10	1	COC(=O)c1ccc(C)c(NC(=O)CCSc2ccc(Cl)cc2)c1
51*	26%	2%	-3.6	.	-10	COc1ccc(NC2=C(C(C)=O)C(c3ccc(N(C)C)cc3)C(C(C)=O)C(C)(O)C2)cc1 (centres undefined)
-4	-10%	-14%	4.2	-1	0	O=C1CC2C(CC(OC(=O)c3ccc(-c4ccccc4)cc3)C2CO)O1 (centres undefined)
-1	-22%	-27%	-0.2	-2	0	Cc1ccc(NC(=O)CN2CCC(Cc3ccccc3)CC2)cc1S(=O)(=O)N(C)C
-8	22%[15.4 µM]	-5%	-3.7	8	4	CCc1ccc2[nH]c(C(=O)Nc3ccc(F)cc3Br)cc2c1
7	-17%	6%	-4.0	-7	-1	N#CC1=C(Nc2ccccc2)SC=C(c2ccccc2)N=C1N1CCOCC1
-33	-23%	?	5.3	?	?	CC(C)(C)c1cc(C(=O)N/N=C/c2ccc(-c3ccccc3[N+](=O)[O-])o2)n[nH]1
-19	-17%	7%	-1.1	4	-1	Cc1nn(Cc2c(Cl)cccc2Cl)c(Cl)c1/C=C/C(=O)OCC(=O)NCC(F)(F)F
-14	?	10%	-1.7	7	11	O=S(=O)(N/N=C\c1cccnc1)c1ccccc1
-4	-1%	-1%	-6.0	?	?	CC(Oc1cccc(Br)c1)C(=O)NNC(=O)c1ccccn1 (centres undefined)
-9	20%	-6%	-2.0	6	0	Fc1ccc(C2=Nn3c(Cc4ccccc4)nnc3SC2)cc1

Entries above that contain a COOH group (2):
D2 potentiator	gsp agonist	gsp antagonist	D2 ag	CtBP-E1A blk	Six1-Eya2 inh	canonical_smiles
-3	-1%[15.4 µM]	-8%	4.5	.	11	Cc1ccc(C(=O)Nc2ccccc2C(=O)NC(Cc2ccccc2)C(=O)O)cc1 (centres undefined)
0	13%	-24%	-0.6	4	4	O=C(O)c1ccc(CSc2nnc(COc3ccc(Cl)cc3Cl)o2)cc1

More records
D2 potentiator	gsp agonist	gsp antagonist	D2 ag	CtBP-E1A blk	Six1-Eya2 inh	canonical_smiles
-8	42%[15.4 µM]	-14%	-2.3	24	0	Cc1ccc(NC2=C(Cl)C(=O)OC2OC(=O)c2ccccc2)c(C)c1 (centres undefined)
-8	-3%[15.4 µM]	-4%	-1.8	2	-4	O=C(N/N=C/c1ccco1)C12CC3CC(CC(C3)C1)C2
10	-26%	10%	5.7	-2	-1	CCN(CC)S(=O)(=O)c1ccc2oc(C(=O)Nc3ccc(OC)cc3OC)c(C)c2c1
-5	-36%[inhibitor]	-14%	-0.2	-1	-3	Cc1ccc(C(=O)O)cc1NC(=S)NC(=O)c1ccc(-c2ccccc2)cc1
-6	-3%[15.4 µM]	7%	-3.8	0	0	CC1CCN(S(=O)(=O)c2ccc(C(=O)N(C)C3CCS(=O)(=O)C3)cc2)CC1 (centres undefined)
12	16%	-5%	-1.6	6	-3	O=C(c1ccccc1)c1ccc(OCC(O)CN2CCOCC2)cc1 (centres undefined)

Compound activity deposited in PubChem by National Center for Advancing Translational Sciences (NCATS).
